High-throughput results: PubChem BioAssay, several laboratories
Beta cell apopt = beta cell apoptosis inhibition. INS-1E cytokine-induced death, ATP luminescence, 48 h; percent of positive-control rescue, neutral wells zero. protection from apoptosis, % (no concentration beside the values). 300,000 compounds, 0.8% hits. AID 435005;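 active means all replicates at 75% or more, or half of them and the mean; inconclusive means half reach 75% but not the mean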;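 further: 0% = cytokine-treated negative control wells and 100% = positive control rescue; higher means more ATP so stronger rescue from cytokine killing; wells of about 40 µL received 100 nL stock; the first replicate is given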
LANA-H2A inh = blocks KSHV LANA binding to histone H2A/H2B | cell-free LANA-H2A/H2B peptide, fluorescence polarization | inhibition, % (test concentration not listed) | 320,000 compounds, 0.6% hits | AID 2629; in the data active means inhibition mostly above about 10%, no sharp cut-off; inactive means mostly below about 6.7%;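 further: stock transfer was 7.5 nL into about 10 µL; 0% = median of vehicle wells and 100% = median of positive control wells; one replicate is shown; the record names a cut of 25% in any replicate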
Bfl-1 A1 inh = inhibitors of the anti-apoptotic protein A1, read as caspase activation; MEF A1-2A-BIM cells, Caspase-Glo 3/7 luminescence, 3 h; percent of clofoctol response, vehicle zero; caspase activation, % (concentration not given with the values); 330,000 compounds, 0.066% hits; AID 2462;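 active means over half of replicate activation scores above 10%, or exactly half above 10 with the replicate mean above 10; inconclusive means replicate mean below 10 yet half the replicates above 10; inactive means over half of replicates below 10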;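 further: wells of about 30 µL received 50 nL stock; many hits fall short of the cut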
T cruzi inh = blocks replication of Trypanosoma cruzi | AID 1885 | 300,000 compounds, 1.4% hits | T. cruzi beta-gal in NIH3T3, luminescence, 90 h | inhibition, % (no concentration beside the values);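 active means mean inhibition across valid replicates above about 55%, limit read from the data; inconclusive means mean below that limit but half or more replicates reach it; inactive means mean below it, under half of replicates reach it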;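 further: signal also drops with host cell toxicity which is not excluded here; 0% = plate median of DMSO wells and 100% = zero luminescence signal; higher percent means less beta-gal luminescence so fewer parasites; stock transfer was 50 nL into about 50 µL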
B2AR ag = agonists of human beta-2 adrenergic receptor inducing internalization; 340,000 compounds, 0.43% hits; P07550; Am2.2-beta2AR cells, FAP receptor internalization, flow cytometry; reference of the scale not given here; response, % (no concentration beside the values);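 active means response above a set limit, near 3 SD of response in nonfluorescent compounds, cut at about 42% in these data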;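 further: stock transfer was 100 nL into about 11 µL; a reference agonist was the positive control; negative values mostly stem from fluorescent compounds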
Target sequence (P07550 whole entry, looked up): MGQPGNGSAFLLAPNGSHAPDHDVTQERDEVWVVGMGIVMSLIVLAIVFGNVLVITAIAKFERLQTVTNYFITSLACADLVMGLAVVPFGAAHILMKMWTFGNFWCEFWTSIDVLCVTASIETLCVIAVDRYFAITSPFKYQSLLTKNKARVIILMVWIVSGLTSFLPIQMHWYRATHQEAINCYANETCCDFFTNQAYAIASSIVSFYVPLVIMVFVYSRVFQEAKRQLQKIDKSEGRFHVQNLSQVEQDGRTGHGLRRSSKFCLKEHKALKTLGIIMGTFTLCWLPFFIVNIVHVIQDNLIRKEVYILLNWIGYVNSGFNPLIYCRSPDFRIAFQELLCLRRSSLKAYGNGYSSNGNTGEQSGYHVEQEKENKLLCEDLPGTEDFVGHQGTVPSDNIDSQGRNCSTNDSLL
Calb FLC = C. albicans growth modulation with fluconazole. C. albicans CaCi-2 (fluconazole-resistant clinical isolate) + fluconazole, Alamar Blue growth, 48 h. 300,000 compounds, 0.57% hits. growth inhibition, % (concentration not given with the values);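 active means most replicates above 75%; inconclusive means exactly half above 75%; inactive means most below 75%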;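 further: all wells also contain fluconazole at 8 µg/ml as a sub-toxic cotreatment; 0% = median of DMSO wells and 100% = median of geldanamycin control wells; wells of about 8 µL received 7.5 nL stock; the first replicate is given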
rRNA inh HTS = selective bacterial rRNA inhibition in E. coli. E. coli WT GFP vs humanized-ribosome RFP mutants, fluorescence, 24 h; active compounds read low; DMSO median 0, no signal -100. 350,000 compounds, 1.6% hits. GFP signal change (wild-type ribosome), % (no concentration beside the values);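 active means significant combined selectivity score with lowered wild-type GFP, culture density cut under 30%, mutant RFP and density less affected; inactive means any of these conditions unmet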; further: one replicate is shown; some compounds called inactive have numbers as strong as hits
ALR H2O2 inh = human ALR oxidase inhibition via reduced H2O2 | 290,000 compounds, 3.8% hits | P55789 | inhibition, % (concentration not given with the values) | AID 485317 | purified ALR, DTT oxidation, H2O2 HRP-luminol luminescence;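 active means mean and each replicate at 75% or more; inconclusive means only one of the two met; inactive means neither met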;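 further: stock transfer was 7.5 nL into about 7.5 µL; 0% = neutral wells and 100% = wells with inactivated enzyme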
Target sequence (P55789 whole entry, looked up): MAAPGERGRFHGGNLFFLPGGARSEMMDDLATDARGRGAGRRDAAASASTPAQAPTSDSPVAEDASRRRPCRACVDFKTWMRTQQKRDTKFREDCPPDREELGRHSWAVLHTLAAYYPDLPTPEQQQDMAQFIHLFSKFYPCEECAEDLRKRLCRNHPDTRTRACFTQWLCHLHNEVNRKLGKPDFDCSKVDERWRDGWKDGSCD
rRNA inh HTS OD600 = recorded beside rRNA inh HTS, whose call it bears; OD600 change, %; measured here: OD600 growth;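 optical density of the mix in the first replicate; 0 = DMSO median and -100 = no signal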
rRNA inh HTS RFP = further read-out of rRNA inh HTS, marked with its call; RFP signal change, %; measured here: RFP humanized mutant strains;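 first replicate; 0 = DMSO median and -100 = no signal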
* marks the source's active call; other numbers are inactive results; ? = inconclusive; / = no result given.

SMILES	Beta cell apopt	LANA-H2A inh	Bfl-1 A1 inh	T cruzi inh	B2AR ag	Calb FLC	rRNA inh HTS	rRNA inh HTS OD600	rRNA inh HTS RFP	ALR H2O2 inh
Cc1ccc(-n2nc3c(c2NC(=O)c2cccs2)CSC3)cc1	-17	1.3	1.5	3	15	0	/	/	/	-7
CC(=O)Nc1ccc(NC(=O)c2ccc(COc3ccc4c(C)cc(=O)oc4c3)cc2)cc1	3	-4.6	0.8	-6	/	-9	/	/	/	/
Cc1ccc(N2C(=O)N(CC(=O)Nc3ccc(C)c(C)c3)C(=O)C2C)cc1 (stereo unspecified)	/	8.1	1.0	-12	9	7	2	5	2.8	-4
CC1CCN(S(=O)(=O)c2ccc(N=NC3=C(O)CC(C)(C)CC3=O)cc2)CC1	-8	0.9	0.7	13	-3	1	/	/	/	7
O=S(=O)(c1ccc(Br)cc1)n1ccc2ccccc21	36	-3.7	-0.8	29	-2	-34	/	/	/	-20
O=C(NCCOc1ccc2ccccc2c1)c1cncc(Br)c1	-2	-4.5	0.0	-7	-2	-2	4	4	0.1	3
NC(=O)c1c(NC(=O)Cn2cnc([N+](=O)[O-])n2)sc2c1CCCC2	-5	4.9	-0.2	51	-13	-2	1	4	0.6	-18
Cc1ccc(OCCCC(=O)NNC(=O)c2ccncc2)cc1	/	-2.9	0.4	-7	11	-3	1	0	-0.3	-9
CCN(CC)CC(C(=O)N(CC)CC)P(=O)(c1ccccc1)c1ccccc1 (stereo unspecified)	-4	-1.1	0.3	-14	1	-2	/	/	/	-3
COc1ccc(C(=O)Nc2c(C)cc(C)cc2C)cc1OC	/	4.9	0.4	-5	0	3	2	-2	-0.1	7
O=C(/C=C/c1ccccc1)NC(=S)Nc1ccc2c3c(cccc13)CC2	13	-1.6	-0.3	-11	-2	3	/	/	/	-5
Cc1ccc(C)c(NC(=O)CCC(=O)N2CCOc3ccccc32)c1	5	1.3	0.1	-9	0	-13	-9	-13	-7.6	-5
O=S(=O)(c1ccc(Cl)cc1)N1CCN2CCCC2C1 (stereo unspecified)	2	0.8	1.0	-4	-8	-17	3	-5	3.9	-10
CCOC(=O)C1=C(C)N(CCCC(=O)O)C(=O)NC1c1ccc([N+](=O)[O-])cc1 (stereo unspecified)	-4	-6.2	-1.1	-16	3	-2	-2	7	-7.7	-10
CC1CCN(S(=O)(=O)N2CCCC(C(=O)NCc3ccccc3Cl)C2)CC1 (stereo unspecified)	2	7.4	0.2	6	2	-15	-5	-2	1.9	1
Cc1cc(C)c2oc(=O)cc(CN3CCCCC3)c2c1	-2	7.0	0.3	-6	0	2	12	10	0.4	3
CCn1c2ccccc2c2cc(/C=N/NC(=O)c3ccc(O)cc3)ccc21	9	/	-0.1	29	26	7	-4	6	2.1	/
Oc1cccc(Nc2nc(-c3ccccc3Cl)nc3ccccc23)c1	1	-0.6	0.7	4	15	13	-65	-79	-17	88*
CN(CC(=O)Nc1cccc(F)c1)C(=O)c1ccc(S(=O)(=O)N2CCCC2)cc1	2	1.0	1.3	/	-2	/	4	8	1.6	11
Cc1cccc(Nc2nc(N)nc(CN3CCN(C)CC3)n2)c1	-3	-2.2	-0.5	-14	1	-2	/	/	/	2
CN1CCN(S(=O)(=O)c2ccc(NC(=S)NC(=O)C3CCCC3)cc2)CC1	-3	-2.5	0.8	6	-2	23	-13	-6	0.2	6
O=C1CCN(Cc2ccccc2)C=C1c1ccc2ccccc2c1	5	3.1	0.7	/	-3	/	-16	-23	3.4	-8
CCC(C(=O)NC1CCCC1)N(C(=O)Cn1nnc(-c2ccc(C)o2)n1)c1cccc(OC)c1 (stereo unspecified)	-5	-2.8	-1.6	5	-2	-6	4	9	-1.4	-4
CCOc1cc2[nH]c(=O)n(CCC(=O)NCCc3ccccc3)c(=O)c2cc1OCC	5	-2.5	0.8	4	26	7	/	/	/	-6
NC1CCN(c2c(F)cc3c(=O)c(C(=O)O)cn(C4CC4)c3c2Cl)C1 (stereo unspecified)	0	-2.3	0.6	-11	7	-1	-57	-81	-24	/

Other compounds follow.
SMILES	Beta cell apopt	LANA-H2A inh	Bfl-1 A1 inh	T cruzi inh	B2AR ag	Calb FLC	rRNA inh HTS	rRNA inh HTS OD600	rRNA inh HTS RFP	ALR H2O2 inh
O=C(CN(C1CCCCC1)S(=O)(=O)c1ccccc1)N1CCCC1	-7	-5.1	-0.6	2	2	-1	1	-5	-2.7	1
CCCCCCSc1nnc(N)s1	1	18	-0.1	7	1	2	-13	-14	-3.8	-2
COc1ccc(CNC(=O)Cc2ccc(NC(=O)C3=C(C)OCCS3)cc2)cc1	7	-0.3	0.1	-17	9	-8	5	3	0.9	-2
Cc1nn2c(-c3ccc(F)cc3)ccnc2c1Cl	-3	3.5	0.0	-3	-3	-1	0	3	-0.5	0
CCCn1c(SCC(=O)NC)nnc1C(C)C	-1	-2.9	0.6	-6	6	-2	/	/	/	-2
C/C(=N/NC(=O)c1ccc(Cn2cccn2)o1)c1cccc(NC(=O)c2ccncc2)c1	/	/	/	-7	6	0	3	6	0.3	/
CCOc1nc(-c2ccccc2O)nc2ccccc12	-1	-0.4	1.0	8	-10	-7	5	16	-1.0	1
O=C(Nc1ccccc1)c1nc[nH]c1C(=O)N1CCc2ccccc2C1	3	2.1	-0.6	/	-5	/	2	7	2.8	4
CC(=O)Nc1ccc(NC(=O)CCC(=O)Oc2ccc(C)cc2)cc1	-15	0.0	0.6	-3	-3	4	14	11	-8.1	9
COCCN(CC(=O)Nc1ccccc1C(F)(F)F)C(=O)/C=C/c1cc(Cl)c2c(c1)OCO2	-15	1.6	-0.8	/	-4	/	10	3	4.8	-1
Cc1ccc(S(=O)(=O)N(C)c2ccc(OCC(=O)OCc3c(C)noc3C)cc2)cc1	1	0.3	0.7	-17	10	-2	/	/	/	7
COc1ccc(-c2cc(C(=O)NNC(=S)NC(=O)c3c(-c4ccccc4)noc3C)[nH]n2)cc1	11	-1.3	-0.1	4	-2	81*	-25	-28	-6.0	60
COc1cc([C@@H]2c3cc4c(cc3[C@@H](O)[C@H]3COC(=O)[C@H]23)OCO4)cc(OC)c1O[Si](C)(C)C(C)(C)C	1	0.6	0.7	17	3	6	5	8	-10	/
CC(C)(C)OC(=O)N[C@@H](Cc1c[nH]c2ccccc12)c1nnc(SCC(N)=O)o1	-1	-0.5	0.5	-4	0	-5	/	/	/	-1
N#Cc1c(N)n(CCNC(=O)c2cccs2)c2nc3ccccc3nc12	3	-4.7	0.2	-7	-62	5	/	/	/	1
Cc1ccc(-c2c(C(=O)N/N=C/c3cccs3)nnn2-c2nonc2N)cc1	-1	-2.5	0.8	-6	-10	?	/	/	/	3
CC1CCN(C(=O)c2ccc(CNS(=O)(=O)c3ccc(C(C)(C)C)cc3)cc2)CC1	2	-0.6	0.5	/	-5	/	-22	-58	-0.8	-5
O=C(NC(Cc1ccccc1)C(=O)N1CCCCC1)c1ccccc1 (stereo unspecified)	2	-2.1	0.8	-7	7	-1	-2	6	0.3	/
O=C(Nc1ccccc1Cl)OCc1cncs1	-5	2.0	-0.2	-5	4	25	2	3	-8.6	1
CO/N=C/c1ccc(N2CCCC2)c([N+](=O)[O-])c1	6	-0.2	0.5	8	-4	-28	-12	6	0.1	/
Cc1ccc(CNC(=O)c2c(C)cc(=O)oc2C)cc1	-1	2.3	0.4	12	1	3	/	/	/	0
CC(=O)Nc1cccc(C(=O)OCc2ccc([N+](=O)[O-])cc2)c1	1	6.4	-1.1	8	7	-9	-9	-9	0.4	-15
Cc1cc(C(C)C)n2c(nc3ccccc32)c1C#N	1	0.7	0.8	-18	/	1	/	/	/	-9
COc1cc2nc(Nc3ccc(C)c(Cl)c3)nc(N)c2cc1OC	14	-2.3	-1.7	38	10	-6	-70	-77	-22	-1
O=C(COC(=O)CNS(=O)(=O)c1ccc(Br)cc1Cl)NCCc1ccccc1	-4	1.1	-0.6	-9	2	6	-2	-2	6.3	2

(listing goes on)
SMILES	Beta cell apopt	LANA-H2A inh	Bfl-1 A1 inh	T cruzi inh	B2AR ag	Calb FLC	rRNA inh HTS	rRNA inh HTS OD600	rRNA inh HTS RFP	ALR H2O2 inh
CCc1cccc(NC(=O)Cn2cccc2)c1	-2	-0.9	-0.4	-18	-1	-1	/	/	/	2
O=C(c1ccc(Br)o1)N(c1ccccn1)C1CCCCC1	-15	-0.5	-0.2	10	5	40	/	/	/	0
CSc1nnc(-c2ccc(O)cc2)n1C	-10	-0.9	0.8	-10	2	-2	/	/	/	62
CCOC(=O)Cn1c(=O)oc2cc(S(=O)(=O)N3CCN(c4ccccn4)CC3)ccc21	-2	0.9	0.0	4	7	-8	7	8	-0.9	1
Cn1c(SCc2cccc3ccccc23)nnc1-c1ccco1	11	4.7	-1.0	-6	-11	7	/	/	/	52
O=Cc1ccc(-c2ccccc2C(=O)O)o1	-1	-1.5	-0.7	-17	-7	3	7	9	-2.3	-5
Cc1cc(C(=O)COC(=O)c2ccc(NC(=O)CC#N)cc2)c(C)n1CCc1ccc(F)cc1	7	-0.7	-0.2	/	3	/	0	-2	7.6	-1
COc1ccc(N(CC(=O)N2CCCC2)S(C)(=O)=O)cc1	-6	-5.4	-0.3	-7	3	-2	-3	11	-2.8	-14
O=C(NCCCN1CCOCC1)c1cc(-c2ccc(Br)cc2)nc2ccccc12	8	/	0.1	-14	-2	-1	-2	3	3.2	/
COc1ccc(-c2ccc(=O)n(Cc3ccccc3)n2)cc1	-6	-1.7	-0.9	-3	-3	0	-25	-41	0.1	-4
O=c1c(-c2cccc3ccccc23)[n+]([O-])c2ccccc2n1O	2	0.8	-0.2	6	18	2	/	/	/	-14
CCN1CCN(C(=O)c2nn(-c3ccccc3)c(=O)c3ccccc23)CC1	-3	7.1	0.8	-5	0	-9	/	/	/	-1
CN(C)CCCN(C(=O)c1ccc(S(=O)(=O)N(C)C2CCCCC2)cc1)c1nc2ccc(F)cc2s1	3	1.5	?	36	17	-9	-53	-80	-18	-5
COc1ccc(/C=N/NC(=O)c2cc(O)c(O)c(O)c2)cc1Cn1cc([N+](=O)[O-])cn1	/	/	/	-16	2	97*	-23	-16	-7.0	/
Cc1cc(C)cc(N(C(=O)C2CCCC2)C2C=CS(=O)(=O)C2)c1 (stereo unspecified)	0	2.8	0.4	-3	9	5	7	7	-1.8	7
Cc1ccc(C)c(S(=O)(=O)Nc2cc(SCC(=O)O)c(O)c3ccccc23)c1	130*	-2.1	1.4	/	18	/	/	/	/	56
O=C(COC(=O)c1ccccc1Oc1ccccc1)NC1CCS(=O)(=O)C1 (stereo unspecified)	0	-1.8	0.1	-13	-8	1	/	/	/	-18
COc1ccccc1-c1nc(S(=O)(=O)c2ccc(Cl)cc2)c(N(C)C)o1	/	-3.6	0.9	-29	-4	-14	/	/	/	17
Cc1cc(-c2n[nH]c(=S)n2Cc2ccco2)nn1C	2	2.2	0.0	-7	8	9	8	9	1.0	6

An excerpt. The share of hits here may be higher or lower than overall.
